Bioassay records from PubChem.
VACV mCherry inh = inhibitors of vaccinia virus infection (mCherry reporter signal); Vaccinia virus mCherry reporter infection, fluorescence; about a quarter of the inactives have no number; Potency, µM (series often up to 36.5 µM), inactives show at the top dose activity change, negative = inhibition, usual class: inhibitors; hit rate 0.63% among 310,000; active = well fitted inhibition curve with a large enough effect; inconclusive = small, poorly fitted or top-dose-only effect; inactive = no such curve, though single readings can be large or run the other way; tested in A549 cells; also: nearly all actives have a fitted effect of over 35% in size; inactives centre near -10
Vaccinia Venus = vaccinia inhibition (Venus reporter). Potency, µM (series often up to 36.5 µM), for the others: top-dose activity change, negative = inhibition, actives largely listed as inhibitors. AID 720580. hit rate 0.46% among 330,000. Vaccinia virus Venus reporter expression, fluorescence; active means well fitted inhibition curve with a large enough effect; inconclusive means small, poorly fitted or top-dose-only effect; inactive means no such curve, though single readings can be large or run the other way; tested in A549 cells; also: nearly all actives have a fitted effect of over 30% in size; inactives centre near -10
* marks the source's active call; other numbers are inactive results; i = inactive; ? = inconclusive; nt = not tested or not shown; & = joins results of further samples; [ ] = another dose, or the depositor's remark. % is scaled to controls: 0 for no effect and ±100 for the full control effect; potency is read from the fitted curve at half-maximal effect.

Value order – VACV mCherry inh	Vaccinia Venus
CN(C)c1ccc(-c2nc3n(n2)C(c2cccnc2)C2=C(CC(C)(C)CC2=O)N3)cc1 (configuration not stated)
→ -7%	-17%
Cc1cc(C)c(S(=O)(=O)c2ccccc2C)c(OCC(C)(C)C)n1
→ nt	?
Cc1c(C)c2c(C)[nH]nc2oc1=O
→ -15%	-10%
CC(=O)c1ccc(NC(=O)CN2CCCC2)cc1
→ i	-7%
O=C(c1ccccc1)N1CCN(c2cc(-c3ccccc3)nc3cc(-c4cccc(Cl)c4)nn23)CC1
→ -23%	-23%
C=CC[C@H](CC(=O)N(CCO)Cc1ccccc1)C(=O)N[C@H](C)COC(=O)[C@@H](CC=C)CC(=O)OC(C)(C)C
→ -4%	-20%
CC1(C(=O)NS(=O)(=O)C2CC2)CCCN(C(=O)c2ccc(F)c(Cl)c2)C1 (configuration not stated)
→ 31%[activator]	-2%
Cc1ccc(C(C)C)c(OCC#CCN2CCCC2)c1
→ -7%	-15%
Cc1ccc(S(=O)(=O)NCC(=O)OCC(=O)Nc2cccc(S(=O)(=O)NC3=NCCCCC3)c2)cc1
→ -13%	-10%
Cc1cccc(-c2nc3ccccc3c(=O)n2NC(=O)c2ccc([N+](=O)[O-])c(C)c2)c1
→ i	-8%
Cc1onc(-c2c(F)cccc2Cl)c1C(=O)OCC(=O)NCc1ccco1
→ i[1.46 µM]	-7%
O=C(OCc1cn([C@@H]2C[C@H](c3ccc(Cl)cc3)N(CC3CCCCC3)C[C@H]2O)nn1)c1ccccc1
→ -6%	-20%
O=c1[nH]cc(CN2CCOCC2)c(=O)[nH]1
→ ?	-2%
Cc1ccc(S(=O)(=O)N(C)c2c(C)ccc(S(=O)(=O)N3CCN(C)CC3)c2C)cc1
→ -13%	-26%
Cc1cc(C)cc(NC(=O)CN(c2ccc(F)cc2)S(C)(=O)=O)c1
→ -3%	-5%
Cc1c(NC(=O)Cn2cc([N+](=O)[O-])cn2)c(=O)n(-c2ccccc2)n1C
→ 5%	2%
Cc1cc(/C=C2/C(=O)NC(=O)N(c3ccc(Br)cc3)C2=O)c(C)n1C
→ -4%	1%
CCC1CN(C(=O)NCc2ccc(C)cc2)c2cc(C)ccc2O1 (configuration not stated)
→ -8%	-9%
COc1cc(C=NN2CCCCC2)cc(OC)c1OC
→ i	-10%
CCN(CCCNC(=O)C1CCN(S(=O)(=O)CC)CC1)c1ccccc1
→ -22%	16%
Cc1ccc2c(c1)C(c1ccccc1)N(C(=O)CC(C)C)CC(=O)N2 (configuration not stated)
→ -22%	-4%
COC(=O)c1ccc(OC)c(Cn2c(=O)n(Cc3ccccc3)c(=O)c3c2c2cc(OC)ccc2n3C)c1
→ 2%	4%
O=C(COC(=O)CCc1ccc(S(=O)(=O)N2CCOCC2)cc1)NC1CCCC1
→ -4%	-3%
Cc1ccc(S(=O)(=O)N2[C@H](C(C)C)[C@H]3[C@H]4C(=O)N(c5ccccc5)C(=O)[C@H]4CC(=O)[C@H]3[C@@H]2c2ccccc2)cc1
→ 11%	-3%
Cc1n[nH]c(C)c1S(=O)(=O)N1CCCC(C(=O)NCc2cccs2)C1 (configuration not stated)
→ -26%	-26%
O=C(COc1ccc(Cl)cc1Cl)N1CCN(C/C=C/c2ccccc2)CC1
→ -23%	-19%
CCN(CC)S(=O)(=O)c1ccc(OC(C)C)c(N)c1
→ i	-4%
COc1cccc(C(=O)Nc2ccc(NC(=O)c3ccco3)nc2)c1
→ -22%	-18%
NC1=C(Cl)C(=O)c2ccccc2C1=O
→ ?	?
Cc1nn(Cc2ccc(Cl)cc2Cl)c(Cl)c1/C=C/C(=O)OCC(=O)NCC(F)(F)F
→ i	-6%

Copied from the list:
COC(=O)c1ccc(OC)c(Cn2c(=O)n(Cc3ccccc3)c(=O)c3c2c2cc(OC)ccc2n3C)c1 @ VACV mCherry inh = 2%
O=C(COC(=O)CCc1ccc(S(=O)(=O)N2CCOCC2)cc1)NC1CCCC1 @ VACV mCherry inh = -4%
O=C(OCc1cn([C@@H]2C[C@H](c3ccc(Cl)cc3)N(CC3CCCCC3)C[C@H]2O)nn1)c1ccccc1 @ Vaccinia Venus = -20%
Cc1c(NC(=O)Cn2cc([N+](=O)[O-])cn2)c(=O)n(-c2ccccc2)n1C @ VACV mCherry inh = 5%
O=C(c1ccccc1)N1CCN(c2cc(-c3ccccc3)nc3cc(-c4cccc(Cl)c4)nn23)CC1 @ Vaccinia Venus = -23%

Other entries
Value order – VACV mCherry inh	Vaccinia Venus
Cc1noc(C)c1CSCC(=O)Nc1nc2ccc(Oc3ccccc3)cc2s1
→ nt	-11%
Cc1ccc(C(C)C)c(OCC(=O)Nc2cccc(S(=O)(=O)NC3=NCCCCC3)c2)c1
→ -7%	-24%
CN(Cc1nc(Cc2ccccc2F)no1)CC1(N2CCOCC2)CCCCC1
→ -27%	-8%
COCCNC(=O)C1(C)CCCN(C(=O)c2ccc(C#N)cc2)C1 (configuration not stated)
→ 2%	7%
COc1ccc(C)cc1Nc1n[n+](-c2ccccc2)c(-c2c(OC)ccc3ccccc23)s1
→ 14µM*	?
C/C(=N/NC(=O)CNC(=O)C1COc2ccccc2O1)c1ccc2c(c1)OCCO2 (configuration not stated)
→ 0%	-2%
COCCCNC(=O)C1CCN(c2cc(C)nc3c(-c4ccc(Cl)cc4)c(C)nn23)CC1
→ 3%	6%
COC(=O)COc1ccc(-c2nccc(-c3ccccn3)n2)cc1
→ i	-2%
CSc1ccccc1OCc1cc(C(=O)N[C@H]2CCCCNC2=O)no1
→ -27%	-14%
COc1ccc(CC2(C)OC(c3ccc(C)cc3)=NN2C(C)=O)cc1 (configuration not stated)
→ -14%	-6%
Cn1c(=O)c(C(=O)COC(=O)c2cc(C3CC3)nc3ccccc23)c(N)n(Cc2ccccc2)c1=O
→ i	-20%
CCOC(=O)c1[nH]c2c(c1C)C(=O)CC(c1ccc(N(C)C)cc1)C2 (configuration not stated)
→ -5%	-8%
CCOc1ccc(Nc2nc3cc(S(=O)(=O)N(CC)CC)ccc3o2)cc1
→ ?	?
Cn1c(=O)oc2cc(S(=O)(=O)CCC(=O)NCCc3ccc(Cl)cc3)ccc21
→ -3%	4%
Cc1ccc(C[n+]2c(-c3ccc(C)cc3)cc(-c3ccc(C)cc3)cc2-c2ccc(C)cc2)cc1
→ ?	3.5µM*
CCOC(=O)c1ccc(NC(=O)CSCc2ccco2)cc1
→ -18%	-10%
N#Cc1c(-c2ccccc2)c(-c2ccccc2)nn(CC(=O)NNC(=O)Nc2ccc(Cl)c(Cl)c2)c1=O
→ nt	?
CCCCCOc1ccccc1CN1C(=O)C(=O)c2cc(C)ccc21
→ i	-11%
O=C(O)CCC(=O)N1CCN(c2ccc(C(=O)c3ccc(F)cc3)cc2)CC1
→ nt	-5%
O=C(NCc1cn(-c2ccccc2)nc1-c1ccccc1)c1cc([N+](=O)[O-])cc([N+](=O)[O-])c1
→ nt	-11%
O=C(COc1ccc(Cl)cc1Cl)N1CCN(C(=O)c2ccco2)CC1
→ 2%	7%
O=C(NC1C2CC3CC(C2)CC1C3)c1ccc2c(c1)OCO2 (configuration not stated)
→ -20%	-10%
O=C(Nc1nc2ccccc2s1)C1CC(=O)N(c2ccc(F)cc2)C1 (configuration not stated)
→ -27%	-1%
CC(=O)N1CCOc2ccc(S(=O)(=O)NCCc3ccccc3)cc21
→ -26%	-18%
O=C(CSc1nnc(Cc2ccccc2)o1)N1CCc2ccccc21
→ nt	-14%
O=C(NCCN1CCN(S(=O)(=O)c2ccccc2)CC1)C(=O)Nc1ccc(F)cc1
→ 7%	17%
N#Cc1cccnc1N1CCN(C(=O)c2[nH]c(C(F)(F)F)nc2-c2ccccc2)CC1
→ 23%	10%
CC(=O)Nc1cnc(-c2ccccc2C(F)(F)F)cn1
→ 42%[activator]	2%
Cc1ccc(S(=O)(=O)N2CCC(NC(=O)c3cccc(F)c3)CC2)cc1
→ -14%	-25%
Cc1nnc(Nc2ccc(C(=O)O)cc2)[nH]c1=O
→ i	-3%

Some of the entries so far, field by field.
O=C(CSc1nnc(Cc2ccccc2)o1)N1CCc2ccccc21
- VACV mCherry inh = nt
- Vaccinia Venus = -14%
Cn1c(=O)c(C(=O)COC(=O)c2cc(C3CC3)nc3ccccc23)c(N)n(Cc2ccccc2)c1=O
- VACV mCherry inh = i
- Vaccinia Venus = -20%
CC(=O)Nc1cnc(-c2ccccc2C(F)(F)F)cn1
- VACV mCherry inh = 42%[activator]
- Vaccinia Venus = 2%

Remaining list, next part.
canonical_smiles	VACV mCherry inh	Vaccinia Venus
CC(C)(C)NCC(O)c1cc(O)cc(O)c1 (configuration not stated)	-12%	-9%&-7%
CCS(=O)(=O)N1CCC(n2c(C)nc3cccnc32)CC1	-4%	-8%
COc1ccc(NC(=O)CC2C(=O)NCCN2C(=O)c2ccccc2)cc1 (configuration not stated)	i	-6%
CCc1ccc(OCC(=O)Nc2ncn[nH]2)cc1	-5%	0%
O=C(c1cccs1)N1C[C@@H](n2cc(-c3ccc(F)cc3)nn2)[C@H](O)C[C@@H]1c1ccccc1	-4%	-17%
CSc1nncc(/C(C)=N\Nc2cccc(C)c2)n1	-19%[1.46 µM]	-15%
CCP(=O)(CC)c1cccc(N)c1	nt	-18%
COc1ccc(-c2nc(N3CCCCCC3)sc2C(=O)c2ccccc2)cc1	nt	-28%
CCOc1cccc2sc(NC(=O)c3ccc(S(=O)(=O)N4CCCCC4C)cc3)nc12 (configuration not stated)	-23%	-20%
CC1Cc2ccccc2N1C(=S)NC1CCCC1 (configuration not stated)	-29%	-19%
CCOC(=O)c1c(N=CN(C)C)c(C#N)n2c1CCC2	nt	-13%
CCNc1c(NS(=O)(=O)c2ccc(C3CCCCC3)cc2)c(=O)oc2ccccc12	0%	-20%
CC(C)Oc1ccc(CNS(=O)(=O)c2cnc(N)nc2)cc1	-7%	-3%
O=C(/C=C/c1ccc(Cl)cc1)N1CCN(c2c(Cl)cccc2[N+](=O)[O-])CC1	-28%	-15%
C[C@H](CO)N1C[C@H](C)[C@@H](CN(C)Cc2ccc(-c3ccccc3)cc2)OCc2cnnn2CCCC1=O	i	-16%
CCCC(C)C(=O)Nc1cc([N+](=O)[O-])ccc1Cl (configuration not stated)	-24%	-2%
C[C@H](CO)N1C[C@H](C)[C@@H](CN(C)C(=O)NC2CCCCC2)Oc2ccc(NS(=O)(=O)c3ccccc3)cc2C1=O	-3%	-6%
O=C(Nc1cc(Cl)ccc1N1CCOCC1)c1ccc2c(c1)OCO2	-1%	-14%
CCN(CC)S(=O)(=O)c1cccc(-c2nnc(SCC(=O)c3ccc(Cl)s3)n2C)c1	-8%	-21%
Cc1nn2c(N)c(C#N)cnc2c1-c1ccc(Cl)cc1	-13%	-3%
O=C(COc1ccc(F)cc1Cl)Nc1ccc(N2CCOCC2)cc1N1CCOCC1	-14%	-12%
COc1cc(O)c(C(=O)/C=C/c2ccc(O)c(OC)c2)c(OC)c1	i	40%[activator]
Cn1cnnc1SCC(=O)NC1CCCN(Cc2ccc(Cl)cc2)C1 (configuration not stated)	i	-15%
COc1ccc(OC)c(S(=O)(=O)NCC2CCCO2)c1 (configuration not stated)	nt	-6%
CCOC(=O)[C@]12CCC=C1N(Cc1ccco1)C(=O)[C@H](CC(=O)NCCC(C)C)C2	-3%	4%
COc1cccc(-n2c(SCC(=O)Nc3ccc4c(c3)OCO4)nc3c([nH]c4ccccc43)c2=O)c1	-11%	-7%
CCCc1cc(=O)[nH]c(SCC(=O)Nc2ccc([N+](=O)[O-])cc2C#N)n1	-21%[7.34 µM]	-10%[7.34 µM]
CCc1nnc(NC(=O)c2cc(Cl)ccn2)s1	?	-11%
CCc1ccc(NC(=O)C(=O)NCC2CCCN2S(=O)(=O)c2ccccc2)cc1 (configuration not stated)	-24%	?
COc1cc(NC(=O)C2CCN(S(=O)(=O)c3cccnc3)CC2)cc(OC)c1OC	nt	?
O=C(COC(=O)c1cccc(F)c1)Nc1cccc(S(=O)(=O)N2CCCCC2)c1	i	-7%
CSCC(=O)NC1CCCc2c1cnn2-c1ccc(C)c(C)c1 (configuration not stated)	-12%	-5%
CC(=O)Nc1cnc(NC(=O)c2cccc(F)c2)cc1C	-17%	-11%
O=c1cc(-c2ccccc2)oc2cc(O)cc(O)c12	13%&-10%	?
COc1ccc(CNC(=O)C2CCN(c3nc4ccccc4[nH]3)CC2)c(OC)c1	-6%	6%
CN(c1ccccc1)S(=O)(=O)c1ccc(Cl)c(C(=O)OCC(N)=O)c1	i	-8%
CC1OC(CCc2cccc(Cl)c2)Cc2[nH][nH]c(=O)c21 (configuration not stated)	-6%	-2%
CC(C)(C)CC(C)(C)NCC(=O)Nc1c2c(nc3ccccc13)CCC2	10%	-11%
Cc1ccc(-c2ccc(=O)n(CCC(=O)NCc3ccccn3)n2)cc1	nt	-15%
Cc1ccc([C@H]2N[C@]3(CCCN(Cc4ccc(C(F)(F)F)cc4)C3=O)[C@H]3C(=O)N(Cc4ccccc4)C(=O)[C@@H]23)cc1	?	?
NC(c1csc(Nc2ccc(C(=O)c3ccccc3)cc2)n1)c1ccccc1Cl (configuration not stated)	-20%	-24%
Cc1ccc(N(CC(O)CN2CCOCC2)S(=O)(=O)c2ccc([N+](=O)[O-])cc2)cc1 (configuration not stated)	-25%	-22%
O=S(=O)(c1ccc(Cl)cc1)N1CCC(n2cccc2)CC1	-6%[7.34 µM]	-4%[7.34 µM]
Cc1ccc(N(C(=O)c2snc(C(N)=O)c2N)C(C(=O)NCC2CCCO2)c2ccc3ncccc3c2)cc1 (configuration not stated)	-14%	-9%
CC(C)CNC(=S)N1CCC(c2nc(-c3ccc(F)cc3)no2)CC1	-6%	-27%
CCOC(=O)C1(CCCc2ccccc2)CCN(C(=O)c2cncs2)CC1	-11%	-17%
